Screening data: PubChem BioAssay, National Center for Advancing Translational Sciences (NCATS)
KDM4E inh: JMJD2E (human) inhibition; Potency, µM (highest dose often 57.1 µM), without a hit: top-dose activity change, negative = inhibition, usual class: inhibitors; 1.6% of 230,000 active; B2RXH2; JMJD2E catalytic domain, FDH-coupled NADH fluorescence (FDH is formaldehyde dehydrogenase); active = well fitted inhibition curve with a large enough effect, not every such curve was filed as active; inconclusive = small, poorly fitted or top-dose-only effect, or another doubt; inactive = no such curve, though single readings can be large or run the other way;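 note: 0% = wells with enzyme and -100% = buffer wells without enzyme; nearly all actives have a fitted effect of over 50% in size; many of its hits are not listed in these tables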
Target sequence (B2RXH2 1-337 limits assumed): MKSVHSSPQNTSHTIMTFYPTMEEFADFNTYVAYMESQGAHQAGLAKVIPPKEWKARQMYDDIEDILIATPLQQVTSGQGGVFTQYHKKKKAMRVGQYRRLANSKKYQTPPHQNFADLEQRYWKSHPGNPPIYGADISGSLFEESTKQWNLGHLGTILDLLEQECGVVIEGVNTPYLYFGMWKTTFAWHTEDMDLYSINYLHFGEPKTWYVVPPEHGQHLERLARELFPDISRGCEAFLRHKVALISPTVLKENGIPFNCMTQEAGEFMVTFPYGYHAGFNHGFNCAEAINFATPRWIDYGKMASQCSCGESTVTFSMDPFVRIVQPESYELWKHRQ
TRb SRC2 PPI: inhibitors of human thyroid hormone receptor beta-SRC2 interaction; P10828; TRbeta-SRC2 peptide binding, fluorescence polarization; receptor liganded with 1 µM T3; Potency, µM (doses to about 106 µM), inactives show at the top dose activity change, negative = inhibition, most hits filed as inhibitors; 0.065% of 280,000 active; AID 1469;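 note: plate controls were bound peptide for no effect and peptide without receptor for full effect; nearly all actives have a fitted effect of over 50% in size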
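Polarization signal, normalized between peptide-alone and full complex controls, measured compound effects on T3-liganded human TRb LBD (0.6 uM) binding 20 nM Texas Red SRC2 peptide after 5 hr.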
TR SRC2 fluor cs: Texas Red fluorescence interference in TRb-SRC2 counter-screen; TRb/SRC2 Texas Red total fluorescence interference; Potency, µM (series often up to 106 µM), inactives show top-dose fluorescence change, negative = quenching; 0.29% of 280,000 active; AID 1479; active = well fitted curve in either direction with a large enough effect; inconclusive = small, poorly fitted or top-dose-only effect; note: % is set by controls: 0 for no effect and ±100 for the full control effect
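Flags fluorescent or light-absorbing compounds by total fluorescence, S + 2P, at 555 nm excitation and 632 nm emission. Mixture: 20 nM Texas Red SRC2 peptide, 0.6 uM human TRb LBD, 1 uM T3, 5% DMSO; compound exposure 5 h at ambient temperature.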
RECQ1 helicase: RECQ1 (human) helicase inhibition; RECQ1 DNA unwinding, red fluorescence kinetic read; Potency, µM (top dose mostly 57.3 µM), inactives show at the highest dose activity, negative = inhibition, usual class: inhibitors; 0.54% of 240,000 active;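 note: plate controls were vehicle for no effect and no enzyme for full effect; nearly all actives have a fitted effect of over 30% in size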
Target sequence (P46063 whole entry, looked up): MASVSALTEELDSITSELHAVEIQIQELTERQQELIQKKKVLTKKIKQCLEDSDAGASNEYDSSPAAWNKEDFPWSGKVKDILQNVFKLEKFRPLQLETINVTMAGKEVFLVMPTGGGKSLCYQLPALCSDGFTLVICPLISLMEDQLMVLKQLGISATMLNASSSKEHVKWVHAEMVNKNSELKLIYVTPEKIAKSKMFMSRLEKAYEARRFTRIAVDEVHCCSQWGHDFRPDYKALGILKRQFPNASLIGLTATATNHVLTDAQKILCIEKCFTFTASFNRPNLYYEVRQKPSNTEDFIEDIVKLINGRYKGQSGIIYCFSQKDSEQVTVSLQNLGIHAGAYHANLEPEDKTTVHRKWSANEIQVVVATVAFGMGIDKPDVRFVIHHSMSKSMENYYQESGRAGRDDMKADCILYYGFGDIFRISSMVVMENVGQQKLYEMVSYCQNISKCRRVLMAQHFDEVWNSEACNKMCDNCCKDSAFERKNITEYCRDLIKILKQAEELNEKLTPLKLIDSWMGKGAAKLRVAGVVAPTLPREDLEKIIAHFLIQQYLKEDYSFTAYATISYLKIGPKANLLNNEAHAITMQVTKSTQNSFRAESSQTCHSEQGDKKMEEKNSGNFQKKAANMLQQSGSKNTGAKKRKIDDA
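RECQ1T1 50 nM; forked duplex (20 bp + 30-nt ss tails) 200 nM, ATP 2 mM final; pH 8.0, 2 mM MgCl2, 2.5 ug/ml poly(dI-dC); 15 min compound preincubation; discontinuous kinetic read over 2 h at RT.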
Lamin A splicing: changes lamin A minigene splicing in HeLa cells; HeLa LMNA splicing GFP/RFP minigene ratio, 48 h; Potency, µM (highest dose often 46.1 µM), inactives show at the highest dose ratio change, negative = inhibition, usual class: inhibitors; 0.01% of 200,000 active; AID 1487; active = well fitted inhibition curve with a large enough effect in the signal ratio, with a control signal flat, not every such curve was filed as active; inconclusive = small, poorly fitted or top-dose-only effect, or effect the other way, or a change in a side signal; the % refers to the signal ratio; note: % is set by controls: 0 for no effect and ±100 for the full control effect
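Read-out is the ratio of GFP to DsRed2 object intensity, acquired by 488 nm laser-scanning cytometry on HeLa lamin A-EGFP minigene reporter cells. Compound incubation 48 hrs at 37 °C in Opti-MEM with 2% FBS; DMSO 0.5% final.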
ALDH1A1 block: inhibitors of human aldehyde dehydrogenase 1A1; Purified ALDH1A1, NADH fluorescence, propionaldehyde substrate; Potency, µM (doses to about 75.3 µM), inactives show at the highest dose activity, negative = inhibition, actives largely listed as inhibitors; 7.3% of 220,000 active; active = well fitted inhibition curve with a large enough effect, not every such curve was filed as active; inconclusive = small, poorly fitted or top-dose-only effect, or another doubt; inactive = no such curve, though single readings can be large or run the other way;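 note: plate controls were no enzyme wells and a reference inhibitor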
SMN2 splice up: increases expression of the SMN2 splice variant | Potency, µM (top dose mostly 46.1 µM), for inactives: at the highest dose activity change, positive = activation, actives largely listed as activators | 2.8% of 210,000 active | HEK293 SMN2-luciferase splicing reporter, luminescence, 30-36 h; note: % of control where 0% means no effect; nearly all actives have a fitted effect of over 55% in size
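qHTS luciferase splicing reporter: luminescence rises when SMN2 exon 7 is included in transfected HEK293 cells. Compound exposure lasted 30-36 h at 37C, with 4.5 mM final sodium butyrate as control, followed by a ONE-Glo read.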
* hit, by the source's call; i = inactive; ? = inconclusive; nt = no result given; & = joins results of further samples; [ ] = another dose, or the depositor's remark. Unless noted, calls come from the whole dose curve; as a rule, active = well fitted curve in the direction sought with a large enough effect; inconclusive = small, poorly fitted or top-dose-only effect, or another doubt; inactive = no such curve, though single readings can be large; an effect the other way counts as inactive or inconclusive. Potency is the fitted concentration of half-maximal effect.

SMILES | KDM4E inh | TRb SRC2 PPI | TR SRC2 fluor cs | RECQ1 helicase | Lamin A splicing | ALDH1A1 block | SMN2 splice up
COCCNC(=O)C(c1cccs1)N(Cc1cccs1)C(=O)Cn1nnc2ccccc21 (stereo not drawn) | -2.3% | 2.0% | 2.6% | 10.1% | -5.4% | 4.3% | 6.8%
Cc1cc(C)c(-c2noc(C(=O)OC(C)(C)C)c2C(=O)OC(C)(C)C)c(C)c1 | 0.9% | -6.3% | 1.9% | -6.7% | 1.2% | 1.7% | -13.2%
CN(C)CCCN(C(=O)CCc1ccccc1)c1nc2ccc(Br)cc2s1 | -9.8% | 7.1% | 0.1% | i | ? | -7.8% | -46.6%[inhibitor]
COc1ccc(C2CC(=O)N3CN(c4ccc(C)c(Cl)c4)CSC3=C2C#N)cc1OC (stereo not drawn) | 12.6µM* | 1.5% | 3.1% | -6.0% | -16.5% | 7.94µM* | -32.5%[inhibitor]
CCOC(=O)C(C(=O)Nc1ccccn1)C1CCCCC1 (stereo not drawn) | ? | -22.7% | 5.3% | -14.3% | -3.1% | 4.1% | 0.8%
CC1CC2C3CCC4=CC(=O)C=C[C@@]4(C)[C@]3(F)C(O)C[C@]2(C)[C@]1(O)C(=O)CO (stereo partly drawn) | -0.7%&2.5% | 6.0%&-6.4% | -2.2%&-0.4% | 2.9%&-3.9% | nt | 0.4%&-1.4% | 0.5%&16.5%
CCc1cc(-c2n[nH]c(C)c2-c2nc(C)cs2)c(O)cc1OC | 0.1% | -0.8% | 2.7% | -12.4% | nt | 3.2% | nt
Cc1nn(CC#N)c(=O)n1-c1ccc(C(C)C)cc1 | -13.8% | 0.0% | -1.2% | -5.6% | nt | 0.3% | -4.2%
CCn1c(SCC(=O)Nc2ccccc2F)nc2c(c1=O)SC(C)C2 (stereo not drawn) | 8.9% | -2.4% | -1.5% | -2.8% | -13.6% | -15.1% | -19.6%
CC1CCc2c(C(=O)NCc3ccccn3)csc2C1 (stereo not drawn) | -0.6% | -13.7% | 0.1% | -5.4% | -8.5% | ? | ?
COC(=O)/C=C/c1oc2ccccc2c1C | -20.0% | 0.2% | 1.4% | -9.3% | -20.1%[46 µM] | 6.0% | 29.8%
COCCCn1c(C)nnc1SCC(=O)NCc1ccco1 | -0.4% | -7.4% | -0.8% | 9.9% | ? | 0.3% | -3.6%

Next part; the last 2 above are carried over.
SMILES | KDM4E inh | TRb SRC2 PPI | TR SRC2 fluor cs | RECQ1 helicase | Lamin A splicing | ALDH1A1 block | SMN2 splice up
COC(=O)/C=C/c1oc2ccccc2c1C | -20.0% | 0.2% | 1.4% | -9.3% | -20.1%[46 µM] | 6.0% | 29.8%
COCCCn1c(C)nnc1SCC(=O)NCc1ccco1 | -0.4% | -7.4% | -0.8% | 9.9% | ? | 0.3% | -3.6%
CCOC(=O)c1sc2nc(C)nc(SCC(=O)NC(C)CCc3ccccc3)c2c1C (stereo not drawn) | -1.2% | 2.4% | -2.0% | -2.3% | 2.3% | 5.9% | nt
O=C1NCCCc2c1oc1cc(Br)c(O)c(Br)c21 | -5.1% | -3.0% | -6.5% | -0.3% | ? | 3.98µM* | -29.7%
Cc1nc2c(C)cccn2c1C(=O)N/N=C/c1ccccc1[N+](=O)[O-] | 9.7% | -0.5% | -3.7% | -5.4% | nt | nt | nt
COc1cccc(C(=O)NCc2ccc3c(c2)cc(C)n3C)c1 | 7.7% | -0.1% | 6.1% | -3.5% | nt | ? | -10.1%
O=C(CSc1nnc(COc2ccc(Cl)cc2)o1)OC1CCCCC1 | 1.2% | 5.0% | -0.1% | i | -11.0% | ? | 16.7%
Cn1c(SCC(=O)N2CCOCC2)nnc1-c1cccc(NC(=O)c2ccccc2)c1 | -6.1% | 1.8% | -0.3% | -3.7% | 2.6% | -5.1% | -6.2%
CC(/C=N/n1c(COc2ccccc2)n[nH]c1=S)=C\c1ccco1 | 0.2% | 2.2% | -7.0% | -14.5% | nt | nt | nt
O=C(Cn1nc(-c2ccccc2)nc1-c1ccccc1)OC1CCCCC1 | -0.4% | -24.2% | 1.9% | i | ? | ? | -23.5%
O=C(Nc1cccc(C(=O)N2CCOCC2)c1)c1cncc(Br)c1 | 1.5% | -11.1% | -2.2% | -10.3% | 4.9% | -8.8% | 2.5%
Cn1c(SCC(=O)NCc2ccco2)nnc1-c1c[nH]c2ccccc12 | 3.3% | -4.2% | -4.5% | -9.3% | -10.3% | -6.3% | -4.5%
COc1ccc2nc(N(CCN(C)C)C(=O)/C=C/c3cccs3)sc2c1 | -6.2% | -2.4% | -0.7% | -6.3% | ? | 5.5% | -5.9%
COc1cccc(CNC(=O)c2ccccc2N)c1 | ? | -8.9% | -3.9% | -8.6% | 6.4% | ? | nt

Structural class, the entries above with bromine (three)
SMILES | KDM4E inh | TRb SRC2 PPI | TR SRC2 fluor cs | RECQ1 helicase | Lamin A splicing | ALDH1A1 block | SMN2 splice up
CN(C)CCCN(C(=O)CCc1ccccc1)c1nc2ccc(Br)cc2s1 | -9.8% | 7.1% | 0.1% | i | ? | -7.8% | -46.6%[inhibitor]
O=C1NCCCc2c1oc1cc(Br)c(O)c(Br)c21 | -5.1% | -3.0% | -6.5% | -0.3% | ? | 3.98µM* | -29.7%
O=C(Nc1cccc(C(=O)N2CCOCC2)c1)c1cncc(Br)c1 | 1.5% | -11.1% | -2.2% | -10.3% | 4.9% | -8.8% | 2.5%

New compounds follow:
SMILES | KDM4E inh | TRb SRC2 PPI | TR SRC2 fluor cs | RECQ1 helicase | Lamin A splicing | ALDH1A1 block | SMN2 splice up
COc1ccccc1NC(=O)NC1(C(=O)N2CCCCCC2)CCCCC1 | 9.1% | -2.8% | -6.3% | -2.3% | -8.2% | 7.08µM* | -17.9%
O=C(CSc1nnc(Cc2ccccc2)n1Cc1ccccc1)NCc1ccco1 | -2.8% | -14.8% | 1.4% | i | -7.0% | 4.9% | -0.9%
CCn1c(CCNC(=O)c2ccc(C)cc2)nnc1SCc1ccc(Cl)c(Cl)c1 | -2.2% | -0.4% | -0.9% | -6.8% | -4.4% | -10.4% | -18.0%
COc1ccc(NC(=O)C(CCCCNC(=O)OC(C)(C)C)NC(=O)OCc2ccccc2)cc1 (stereo not drawn) | 7.3% | 0.7% | 0.0% | 2.1% | 5.5% | -7.8% | -57.1%[inhibitor][1.84 µM]
C=CCNc1nc(N(c2ccccc2)c2ccccc2)nc(-n2ccnc2)n1 | -27.8% | 3.0% | 0.9% | 2.0% | -5.2% | -12.9% | -18.3%
COC(=O)Cc1cc(=O)n2[nH]cnc2n1 | ? | -21.7% | 0.8% | -15.1% | -13.9%[0.0737 µM] | 10.1% | -23.3%
CN(c1ccccc1)c1nc(N)c([N+](=O)[O-])c(N2CCCCC2)n1 | 1.9% | -1.5% | 0.4% | i | nt | nt | nt
C(=C\c1ccccc1)/CSc1nnc(-c2ccccn2)n1Cc1ccco1 | 2.4% | -5.1% | -8.0% | -10.7% | ? | -12.6% | -17.8%
COc1ccc(NC(=O)C(c2cc3c(cc2[N+](=O)[O-])OCO3)N(C)c2ccccc2)cc1 (stereo not drawn) | ? | 6.8% | 2.2% | -2.3% | -19.4% | ? | -0.9%[1.84 µM]
CC(=O)Nc1nnc(CCN2CCCCC2)s1 | 7.7% | 4.1% | -1.6% | -4.1% | 15.0% | 8.1% | 18.9%
O=C(NCc1ccccc1)NC1(C(=O)N2CCCC2)CCCCC1 | -2.4% | -0.7% | -2.6% | i | -6.1% | 6.5% | -1.3%
C/C(=N\NC1=NCCN1)c1ccc(N)c([N+](=O)[O-])c1 | 8.2% | -1.5% | -1.7% | -17.2% | nt | nt | nt
CN(CCO)c1cc(NCCCN2CCC(Cc3ccccc3)CC2)c2nonc2c1[N+](=O)[O-] | 0.4% | 5.3% | -0.9% | 6.2% | 8.2%[46 µM] | 4.8% | -4.5%
O=C(NCCCCc1ccccc1)c1ccc(Br)o1 | 5.0% | 0.2% | -1.3% | -0.7% | 2.7% | -2.1% | nt
O=C1N=C(O)CN1/N=C\c1ccc(-c2ccc([N+](=O)[O-])cc2)o1 | 13.9% | -2.0% | -3.7% | -14.9% | ? | -0.6% | -16.8%[20.6 µM]
O=C(Nc1ccccc1)NC1(C(=O)N2CCN(c3ncccn3)CC2)CCCCC1 | -0.8% | -0.3% | 1.3% | -9.8% | 5.8% | 0.9% | 5.3%
CCCCNc1nc(N(C)c2ccccc2)nc(-n2ccnc2)n1 | -3.5% | -2.2% | 1.2% | -3.6% | -7.7% | 4.7% | -21.1%
O=C(Nc1ccc(O)c(-c2nc3ccccc3o2)c1)C1(c2ccccc2)CCCC1 | ? | -18.0%[53 µM] | 0.6%[53 µM] | -3.6% | 12.8% | -0.3% | -10.5%
CCOc1cc(C(=O)CCC(=O)OCC(=O)Nc2ccc(C)c(S(=O)(=O)N(C)C)c2)ccc1O | -2.2% | -4.0% | -1.6% | 5.8% | -1.0%[46 µM] | 28.2µM* | -6.5%
CCCCCCCCS(=O)C1CS(=O)(=O)CC1O (stereo not drawn) | 0.5% | 5.01µM* | 10µM*[fluorescent] | -11.1% | nt | nt | nt
COc1cc([N+](=O)[O-])c(OC)cc1SCc1n[nH]c(=S)n1-c1ccc(F)cc1 | -2.9% | -4.3% | -3.2% | -10.0% | nt | 2.24µM* | nt
Cn1c(SCC(=O)NCc2ccccc2)nnc1-c1ccc(NC(=O)CCc2ccccc2)cc1 | -0.3% | 5.5% | -4.7% | -3.2% | 3.1% | 6.5% | -11.2%
Cc1ccc(Cl)cc1-n1c(=O)cc(N2CC(C)OC(C)C2)[nH]c1=O (stereo not drawn) | 10.7% | -0.6% | -4.7% | -5.9% | 4.8% | ? | ?
COc1ccc(C(=O)NCC(=O)OCc2ccc(F)cc2Cl)cc1OC | -0.3% | -6.0% | -1.1% | -2.1% | 10.7% | 4.8% | 8.2%
CSc1nc(-c2ccc(C)cc2)[nH]c1S(=O)(=O)c1ccccc1 | -7.9% | -0.3% | 0.1% | -8.7% | 23.3% | 7.0% | -17.7%

Of the compounds above, these contain a tert-butyl group:
SMILES | KDM4E inh | TRb SRC2 PPI | TR SRC2 fluor cs | RECQ1 helicase | Lamin A splicing | ALDH1A1 block | SMN2 splice up
Cc1cc(C)c(-c2noc(C(=O)OC(C)(C)C)c2C(=O)OC(C)(C)C)c(C)c1 | 0.9% | -6.3% | 1.9% | -6.7% | 1.2% | 1.7% | -13.2%
COc1ccc(NC(=O)C(CCCCNC(=O)OC(C)(C)C)NC(=O)OCc2ccccc2)cc1 (stereo not drawn) | 7.3% | 0.7% | 0.0% | 2.1% | 5.5% | -7.8% | -57.1%[inhibitor][1.84 µM]

Only part of the results is shown, so the mix of outcomes need not match the whole.
